2A StopGo: lowers the luciferase signal of an FMDV 2A StopGo reporter; human cells with a luciferase reporter of 2A StopGo recoding; control for the full effect not named in the record; Potency, µM (titrated, usually from 57.9 µM), without a hit: at the highest dose signal change, negative = less light; 410,000 compounds, 1.2% hits; active = well fitted falling curve with a large enough effect; inconclusive = small, poorly fitted or top-dose-only effect; inactive = no such curve, though single readings can be large or run the other way; tested in HEK293T cells; further: on the % scale 0 is the no-effect control and ±100 the full control effect; nearly all actives have a fitted effect of over 45% in size; luciferase light after 4 h
SARS PLpro yeast: blocks SARS-CoV papain-like protease in a yeast assay; S. cerevisiae expressing SARS-CoV PLpro, growth rescue; control for the full effect not named in the record; Potency, µM (titrated, usually from 32.9 µM), for the others: at the highest dose activity, positive = growth rescue; 330,000 compounds, 0.19% hits; further: 0% is about no effect; nearly all actives have a fitted effect of over 55% in size; growth read by luminescence after 48 h
MARV entry inh: Marburg virus entry inhibition; AID 540276; Potency, µM (highest dose often 37.8 µM), for inactives: at the highest dose activity change, negative = inhibition, most hits filed as inhibitors; Marburg virus pseudotyped entry inhibition, cell reporter; control for the full effect not named in the record; about a third of the inactives were read at about 46 µM; 300,000 compounds, 1.8% hits; active = well fitted inhibition curve with a large enough effect; inconclusive = small, poorly fitted or top-dose-only effect, or effect the other way; inactive = flat fitted curve, though single readings scatter; tested in HEK293 cells; about a fifth of its hits are not listed in these tables; further: on the % scale 0 is the no-effect control and ±100 the full control effect; luciferase read-out
RE007 growth inh: less growth of the S. pombe RE007 Vpr strain; S. pombe RE007 Vpr strain, BacTiter-Glo ATP luminescence, 24 h; control for the full effect not named in the record; Potency, µM (top dose mostly 92.2 µM), for inactives: at the top dose activity change, negative = less growth; 360,000 compounds, 0.21% hits; active = well fitted falling curve with a large enough effect; inconclusive = small, poorly fitted or top-dose-only effect; inactive = no such curve, though single readings can be large or run the other way;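 further: on the % scale 0 is the no-effect control and ±100 the full control effect; nearly all actives have a fitted effect of over 50% in size; the assay follows cell death caused by Vpr and the record does not say whether a fall means rescue or toxicity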
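Fission yeast RE007 carrying one integrated HIV-1 vpr copy, seeded at OD 0.01 in PMG+AL medium with 23 nL pinned compound. Grown 24 h at 30 degrees; viability read by BacTiter-Glo luminescence after 5 min.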
NS1 function inh: blocks influenza NS1 protein function; S. cerevisiae slowed by influenza A NS1, growth recovery by OD600; 270,000 compounds, 0.4% hits; AID 2326; Potency, µM (highest dose often 46.1 µM), for the others: at the highest dose activity, positive = more growth; further: actives are rising curves; nearly all actives have a fitted effect of over 50% in size
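Recovery from NS1-induced slow growth read by OD600 in budding yeast switched to galactose assay medium (pH 6.0, -URA) at 1:100 dilution. Compound 23 nl per well; the matching strain lacking NS1 serves as control.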
Cruzain inh noDet: blocks cruzain activity in detergent-free assay. P25779. purified cruzain, Z-FR-AMC fluorescence, no detergent. Potency, µM, for the others: max response, negative = inhibition, hits mostly inhibitors. 200,000 compounds, 2.3% hits; active means well fitted curve in the direction sought with a large enough effect; inconclusive means small, poorly fitted or top-dose-only effect, or another doubt; inactive means no such curve, though single readings can be large; an effect the other way counts as inactive or inconclusive;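 further: plate controls were enzyme without inhibitor for no effect and buffer without enzyme for full effect; nearly all actives have a fitted effect of over 40% in size; top concentration of the series not given in the record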
Target sequence (P25779 123-467 limits assumed): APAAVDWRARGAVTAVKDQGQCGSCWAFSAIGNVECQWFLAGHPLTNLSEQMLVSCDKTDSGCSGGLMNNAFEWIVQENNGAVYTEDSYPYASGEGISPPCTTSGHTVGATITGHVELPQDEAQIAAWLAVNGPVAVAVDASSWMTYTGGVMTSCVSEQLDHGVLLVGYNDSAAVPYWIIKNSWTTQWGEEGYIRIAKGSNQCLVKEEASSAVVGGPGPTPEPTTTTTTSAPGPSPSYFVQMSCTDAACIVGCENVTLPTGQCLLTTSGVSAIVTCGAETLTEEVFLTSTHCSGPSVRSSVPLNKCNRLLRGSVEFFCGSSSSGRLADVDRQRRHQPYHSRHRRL
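Purified cruzain at 1.5 nM, pre-incubated 15 min with compound at room temperature in 100 mM sodium acetate pH 5.5, 5 mM DTT, 0.00005% Triton X-100. Reaction started with 2 uM Z-FR-AMC; AMC fluorescence increase over 60 s gives rate.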
LASV entry inh: Lassa virus entry inhibition; Lassa virus pseudotype entry inhibition, cell reporter; control for the full effect not named in the record; Potency, µM (highest dose often 37.9 µM), inactives show at the highest dose activity change, negative = inhibition, usual class: inhibitors; 300,000 compounds, 1.2% hits; active means well fitted inhibition curve with a large enough effect; inconclusive means small, poorly fitted or top-dose-only effect, or effect the other way; inactive means flat fitted curve, though single readings scatter; tested in HEK293 cells; further: on the % scale 0 is the no-effect control and ±100 the full control effect; nearly all actives have a fitted effect of over 50% in size; luciferase read-out
Cruzain Triton: cruzain (T. cruzi) inhibition with detergent; Potency, µM, for inactives: max response, negative = inhibition, usual class: inhibitors; 200,000 compounds, 0.43% hits; P25779; purified cruzain, Z-FR-AMC fluorescence, 0.01% Triton; AID 1478; active means well fitted curve in the direction sought with a large enough effect; inconclusive means small, poorly fitted or top-dose-only effect, or another doubt; inactive means no such curve, though single readings can be large; an effect the other way counts as inactive or inconclusive;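 further: plate controls were neutral wells for no effect and buffer without enzyme for full effect; nearly all actives have a fitted effect of over 40% in size; top concentration of the series not given in the record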
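Read-out: AMC fluorescence (360 nm excitation, 450 nm emission), four reads over 2 min, first-to-third difference used. Conditions: cruzain 1.5 nM, Z-FR-AMC 2 uM, pH 5.5 acetate, 5 mM DTT, 0.01% Triton X-100.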
The depositor's hits bear a star; ? = inconclusive; / = no result given; & = joins results of further samples; ! = repeats disagree; [ ] = remark or other dose. Unless noted, the call rests on the fitted dose curve; in most records, active means well fitted rising curve with a large enough effect; inconclusive means small, poorly fitted or top-dose-only effect; inactive means no such curve, though single readings can be large or run the other way. Potency means the concentration at half of the fitted maximal effect.

smiles,RE007 growth inh,MARV entry inh,LASV entry inh,Cruzain inh noDet,NS1 function inh,2A StopGo,Cruzain Triton,SARS PLpro yeast
CC(=O)Nc1cccc(NC(=O)c2cc(Cl)ccc2Cl)c1,9%,20%[46.1 µM],-1%[46.1 µM],/,/,-9%,/,2%
CCC(=O)Nc1nnc(SCC(=O)NC2CCCC2)s1,-7%,11%[46.1 µM],-7%,/,2%,63%[activator],/,2%
CN(C)S(=O)(=O)c1ccc2c(c1)C(=NO)c1cc(S(=O)(=O)N(C)C)ccc1-2,3%,-2%[46.1 µM],0%,/,3%,3%,/,1%
CC(NC(=O)C(C)(C)C)C(c1cccs1)N1CCOCC1 (stereo not given),24%,-4%[46.1 µM],16%,/,-4%,0%,/,1%
COc1ccc2c(c1)nc(CN1CCN(CCO)CC1)n2C,-12%,/,/,/,2%,-2%,/,11%
CC1CCCCC12NC(=O)N(CC(=O)N1CCN(S(=O)(=O)c3cccs3)CC1)C2=O (stereo not given),-10%,15%[46.1 µM],-20%,/,/,-16%,/,4%
CC12CCC(O)CC1CCC1C2CCC2(C)C(C(=O)CC(O)C(F)(F)F)CCC12 (stereo not given),11%,?,?,/,/,-17%,/,/
COc1ccccc1NC(=O)CCS(=O)(=O)c1cc2c3c(c1)CCN3C(=O)CC2,/,/,27%[46.1 µM],-2%,/,-2%,-16%,/
COc1cc2[nH]cc(C(=O)NCCc3ccccc3)c(=O)c2cc1OC,13%,-15%,-7%,?,-1%,-8%,-7.9%,1%
COc1ccccc1NC(=S)NC(=O)C(C)C,-19%,0%,-3%,1%,4%,/,1.0%,?
CCOC(=O)N1CCC(NC(=O)C2=CCN(S(=O)(=O)c3ccc(F)cc3)CC2)CC1,15%,0%[46.1 µM],12%,/,-5%,-26%,/,0%
Cc1nn(-c2ccc(N3CCCCC3)nn2)c(C)c1CCC(=O)Nc1ccc(F)cc1F,/,/,?,23%,/,-17%,-0.4%,/
O=C(NCCCn1ccnc1)/C(=C\c1ccccc1F)NC(=O)c1ccccc1,2%,1%[46.1 µM],-5%[46.1 µM],/,1%,-6%,/,-1%
COC(=O)c1[nH]c2cc(C)ccc2c1NC(=O)CN1CCc2cc(OC)c(OC)cc2C1,13%,?,?,4%,-95%,22µM*,-11%,-16%
COc1ccc(-c2nc(CN3CCC(C(=O)N4CCOCC4)CC3)c(C)o2)cc1OC,-7%,/,/,/,-1%,1%,/,1%
CC(OC(=O)C1=COCCO1)C(=O)Nc1cc(S(=O)(=O)N2CCCCC2)ccc1Cl (stereo not given),-11%,?,6%,/,/,0%,/,0%
CCc1ccccc1NC(=O)C1CCN(S(=O)(=O)c2ccc3c(c2)N(C(C)=O)CCO3)CC1,0%,?,-1%[46.1 µM],/,3%,-23%,/,-1%
COc1ccc([N+](=O)[O-])cc1NC(=O)c1ccc(N(Cc2ccccc2C)S(C)(=O)=O)cc1,15%,-29%,-12%,-25%,-35%,-10%,-3.7%,20%
Cc1ccc(C2C(C#N)=C(N)SC(N)=C2C#N)cc1,11%,14%,-1%,-13%,-5%,-20%,-10%,8%
CCOC(=O)c1ccccc1NC(=O)CSc1ccc(-c2cccnc2)nn1,-1%,-19%[46.1 µM],-3%[46.1 µM],/,/,10%,/,-1%

smiles,RE007 growth inh,MARV entry inh,LASV entry inh,Cruzain inh noDet,NS1 function inh,2A StopGo,Cruzain Triton,SARS PLpro yeast
O=C(c1cnsn1)N1CCN(c2ccccc2)CC1,-2%,-18%[46.1 µM],3%,13%,-8%,5%,11%,/
Cc1ccc(-n2c(C)nc3c(cnn3-c3ccc(C)c(C)c3)c2=O)cc1C,12%,/,/,-6%,2%,-12%,-9.3%,1%
COc1cc(C(=O)OCC(=O)Nc2cc(-c3cc(C)c(C)cc3C)nn2-c2ccccc2)cc(OC)c1OC,-7%,-29%[46.1 µM],-2%[46.1 µM],9%,4%,5%,-5.5%,2%
Nc1c(C(=O)NC2CCCC2)c2nc3ccccc3nc2n1N,1%,-9%,?,?,-9%,-14%,-11%,-2%
c1ccc(CCN2CCC(N3CCN(c4ccccc4)CC3)CC2)cc1,-5%,-4%,-24%,1%,-7%,-24%,4.0%,8%
O=C(Nc1nc2c(s1)CN(Cc1ccccc1)CC2)C1CCC1,-9%,14%[46.1 µM],-10%,/,/,53%[activator],/,0%
Cc1c(OC(C)C(=O)NCc2ccccn2)ccc2c3c(c(=O)oc12)CCCC3 (stereo not given),-15%,/,/,/,-36%,-23%,/,?
CCOC(=O)c1cn2nc(-c3ccc(OCC)cc3)cc2nc1C1CCN(C(=O)OC(C)(C)C)CC1,-16%,?,1%,11%,3%,13%,-8.5%,0%
COc1ccc(CNC(=O)CCCN2C(=O)COc3ccc(C)cc32)cc1,/,-11%[46.1 µM],/,?,/,-17%,2.8%,/
CN(CC(=O)Nc1ccccc1Cl)C(=O)c1cc(-c2cccs2)nn1-c1ccccc1,9%,-1%,0%,/,/,-15%,/,-1%
O=C(CCNS(=O)(=O)c1ccc2ccccc2c1)NCCOc1ccccc1,-15%,?,-19%,/,/,37%[activator],/,3%
CC(C)(C)C(=O)NC(=S)Nc1sc2c(c1C(N)=O)CCC2,-2%,18%[46.1 µM],-5%,/,-36%,35%[activator],/,-1%
Cc1ccc(C(=O)CSc2nc3ccccc3c(=O)[nH]2)cc1,16%,-1%,4%,-30%,-5%,28%,1.3%,-3%
O=C(CN1CCC(NC(=O)c2ccccc2F)CC1)NCc1ccc(F)cc1,-12%,-7%[46.1 µM],-27%,-4%,6%,-9%,5.0%,6%
O=C(O)CCCCCCNS(=O)(=O)c1ccccc1,-11%[3.69 µM],7%,-5%,-5%,9%,-10%,6.2%,12%
O=C(N/N=C/c1ccc[nH]1)c1ccccc1O,-6%,-17%[14.2 µM],-13%,/,-3%,0%,/,1%
Cc1ccc(C(=O)NC2CCN(C(=O)NCc3ccccc3)CC2)cc1,1%,-2%[46.1 µM],13%,/,26%,-7%,/,16%
O=c1c(O)c(-c2ccc3c(c2)OCO3)oc2ccccc12,-22%,0%,-7%,-7%,-9%,38%[activator],2.9%,-7%
CSCCC1Nc2ccc(S(=O)(=O)N3CCOCC3)cc2NC1=O (stereo not given),32%,-8%[46.1 µM],2%,/,/,1%,/,3%
O=C(COC(=O)COc1cccc(C(F)(F)F)c1)NC1CCCC1,2%,23%,12%,/,/,-17%,/,-4%

smiles,RE007 growth inh,MARV entry inh,LASV entry inh,Cruzain inh noDet,NS1 function inh,2A StopGo,Cruzain Triton,SARS PLpro yeast
CCN(C(=O)CSc1nc(-c2ccccc2)no1)c1cccc(C)c1,/,-26%[46.1 µM],0%[46.1 µM],0%,/,?,-6.2%,/
CCOc1ncccc1C(=O)OCC(=O)c1ccc[nH]1,-4%,4%,7%,-5%,-3%,-5%,-4.0%,0%
COC(=O)Cn1nc(-c2ccccc2)c2cc(Cl)ccc21,-4%,0%,6%,?,-196%,-10%,-10%,-42%
CCCS(=O)(=O)N1CCCC(C(=O)c2ccccc2OC)C1 (stereo not given),4%,/,/,/,2%,-13%,/,-1%
Cc1cc(-c2ccccc2)nc2cc(C(=O)Nc3cc(C(F)(F)F)ccc3Cl)nn12,/,/,-1%[46.1 µM],9%,/,-16%,-2.8%,/
O=C(COc1ccc(Nc2ccccc2)cc1)Nc1ccncc1,-10%,-6%[46.1 µM],?,/,/,?,/,-11%
N#Cc1ccc(-c2ccc(Cl)cc2)nc1Oc1ccc(F)cc1,7%,18%,?,25µM*,4%,-13%,6.2%,10%
O=C(NC1=NCCS1)C1CC2CCC1C2 (stereo not given),-14%,1%[46.1 µM],22%,?,-106%,12%,-8.2%,-25%
O=C(c1cccc(Cl)c1)N1CCC(c2nc3ccccc3o2)CC1,/,3%[46.1 µM],?,-6%,/,-16%,-3.6%,/
O=C1CCCC(=O)C1C(=O)C1CCN(S(=O)(=O)c2ccccc2)CC1,5%,-27%[46.1 µM],-2%,/,5%,-11%,/,4%
O=C(CCn1c(=O)oc2cc(Cl)ccc21)Nc1ccc(N2CCOCC2)cc1,-18%,3%[46.1 µM],3%,/,5%,?,/,-1%
CC(=O)N1c2c(cc(Br)cc2S(=O)(=O)N2CCOCC2)CC1C (stereo not given),-16%,?,3%,10%,-29%,16%,3.2%,5%
CSC1=NCCN1C(=O)Cc1ccc(F)cc1,8%,-1%,/,5%,-1%,-25%,3.7%,1%
O=C(OCc1nnc(-c2ccccc2)o1)C1CC(=O)N(c2ccccc2)C1 (stereo not given),-15%,-11%[46.1 µM],-10%[46.1 µM],/,-38%,-3%,/,-4%
CC(C)c1ccc2[nH]c3c(c2c1)[C@@H]1CCN2C(=O)CCC[C@H](C3)[C@H]12,8%,/,/,/,-11%,2%,/,-7%
O=C(CN1C(=O)COc2ccc(S(=O)(=O)N3CCCC3)cc21)N1CCCC1,1%,/,/,/,-2%,-12%,/,0%
CCN(CC)c1ccc(/C=C/[N+](=O)[O-])cc1,?,?,?,/,/,?,/,-23%
COc1cccc(-c2ccc(-c3noc(-c4cccs4)n3)c(OC)n2)c1,7%,-4%,?,-8%,4%,50%[activator],-5.4%,-5%
CCC(C)N(C(=O)COC(=O)c1[nH]c(C)c(C(C)=O)c1C)C1CCS(=O)(=O)C1 (stereo not given),6%,26%&-1%,-18%,7%,3.2µM*,-14%,3.8%,5%
CCCCCCCCCCCCCCCC(=O)OC(CC(=O)O)C[N+](C)(C)C (stereo not given),?,22µM*!,?,?,?,-23%&-8%,-11%,/
CCCn1nnc(NC(=S)NC(=O)Cc2ccccc2)n1,12%,-3%[46.1 µM],0%[46.1 µM],/,11%,12%,/,0%
CCN(CCCNC(=O)c1nn(-c2ccc(OC)c(Cl)c2)c(=O)c2c1c1ccccc1n2C)c1ccccc1,/,?,-2%[46.1 µM],?,/,-16%,-0.4%,/
CN(C)S(=O)(=O)c1cccc(-c2nnc(SCc3cc(Cl)cc4c3OCOC4)n2N)c1,0%,4%,-4%,-28%,-7%,?,-6.3%,-2%

Compound activity from PubChem.
